Assay outcomes as filed in PubChem BioAssay.
StopGo RLuc: FMDV 2A StopGo reporter, Renilla signal | HEK cells with a luciferase reporter of 2A StopGo recoding | 0.32% of 120,000 active | AID 1745857 | Potency, µM (doses to about 57.5 µM), inactives show at the top dose signal change, negative = less light; active means well fitted falling curve with a large enough effect; inconclusive means small, poorly fitted or top-dose-only effect; inactive means no such curve, though single readings can be large or run the other way; note: nearly all actives have a fitted effect of over 55% in size; overnight with compound
2A firefly: FMDV 2A StopGo reporter, firefly signal | 0.23% of 120,000 active | HEK cells with a luciferase reporter of 2A StopGo recoding | Potency, µM (top dose mostly 57.5 µM), for inactives: at the top dose signal change, negative = less light | AID 1745856; active = well fitted falling curve with a large enough effect; inconclusive = small, poorly fitted or top-dose-only effect; inactive = no such curve, though single readings can be large or run the other way; note: nearly all actives have a fitted effect of over 60% in size; overnight with compound
Active calls of the source: *; u = inconclusive; [ ] = another dose, or the depositor's remark. % is set by controls: 0 for no effect and ±100 for the full control effect; potency is the fitted concentration of half-maximal effect. Hits appear at their usual frequency; overall some 0.55% were active at least once.

Below each compound – StopGo RLuc, 2A firefly
> O=C(O)C(c1c[nH]c2ccccc12)N1CCN(S(=O)(=O)c2ccccc2)CC1 (stereo not drawn)
    -10%, -7%
> CCOc1ccc(C(=O)/C=C/c2cn(CC(O)CN3CCc4ccccc43)c3ccccc23)cc1 (stereo not drawn)
    u, u
> COc1ccc(Nc2nc(-c3ccccc3F)nc3ccccc23)cc1OC
    15%, -14%
> COc1ccc(CNC(=O)C(C)n2nc(C)c3sc4ccccc4c3c2=O)cc1OC (stereo not drawn)
    -10%, -19%
> CCOC(=O)NC(CNC(=O)c1cccc(C)c1)CC(C)C (stereo not drawn)
    4%, -6%
> Cc1nc2c(c(=O)c3ccccc3n2C)c2nc3ccccc3n12
    -14%, 0%
> Cn1nnnc1SCCNCc1ccc(Cl)c(Cl)c1
    -1%, 17%
> COc1ccc(-c2nc3c(c(SC)n2)Cc2c(CO)cnc(C)c2O3)cc1
    -5%, -11%
> COc1ccc(-c2cc3nc(C)c(CCC(=O)NC(C)c4ccccc4)c(C)n3n2)c(OC)c1 (stereo not drawn)
    -1%, -15%
> Cc1ccc2c(COC(=O)c3cccs3)cc(=O)oc2c1C
    3%, 31%[activator]
> Oc1ccccc1Oc1ccc2nnc(-c3ccccc3)n2n1
    -6%, 0%
> CC(C)(C)C(=N)N
    1%, -3%
> CCOC(=O)C1=CN(Cc2ccc(Cl)cc2)C=C(C(=O)OCC)C1c1cccc(O)c1
    u, u
> COCCn1cnnc1SC(C)c1ccc(F)cc1 (stereo not drawn)
    1%, 10%
> CC(=O)Nc1ccc(-c2csc(NC3CCCCC3)n2)c(F)c1
    5%, 121%[activator]
> CC(C)CCNc1nc(-c2ccc3c(c2)NC(=O)CO3)cs1
    -9%, -4%
> O=C(O)c1ccc(Cl)cc1I
    2%, 2%
> N#Cc1ccc(C(=O)NCCCC2CCCC2)cc1
    15%, 159%[activator]
> CC(C)C(=O)Nc1ccc(C(=O)Nc2ccc(Cl)cn2)cc1
    18%, 18%
> Cc1ccc(/C=C(/CC(=O)O)c2nc3ccccc3o2)s1
    -17%, 3%
> Cc1ccc(-c2onc(C)c2C)cc1S(=O)(=O)N1CCCCC1
    -20%, u
> Cc1cc(Br)ccc1NC(=O)Cn1cnc2sc(C)c(S(=O)(=O)N3CCN(C)CC3)c2c1=O
    1%, 1%
> CC/C(C)=N/NC(=O)C1CC1
    -10%, 36%[activator]
> COc1ccccc1-c1nnc2ccc(SCc3ccco3)nn12
    -2%, 2%
> COc1cccc(CNC(=O)CCn2c(=O)c3cccn3c3cccnc32)c1
    -8%, -11%
> COc1ccccc1CN(C)C(=O)NCc1ccc(S(=O)(=O)N2CCCCC2)cc1
    54%[activator], 1%
> Cc1cc(N2CCN(Cc3nc(C)no3)CC2)nc(C(C)C)n1
    -1%, -3%
> CCCCCCCNCc1ccc(C)s1
    0%, 0%
> C=C(Cl)COc1cc(Cl)ccc1C(N)=O
    4%, 6%
> Cc1ccc(Cl)cc1NC(=O)C1CCCN(c2cnccn2)C1 (stereo not drawn)
    -4%, -13%
> CC(C)=NNC(=O)C(C)Sc1ccccc1 (stereo not drawn)
    3%, 18%
> CC(NC(=O)c1ccc(CN2CCCCC2)cc1)c1cccc(C(F)(F)F)c1 (stereo not drawn)
    -11%[1.06 µM], -5%
> O=C(Nc1c(NCc2ccccc2)c2ccccc2oc1=O)c1ccccc1F
    43%[activator], 36%[activator]
> O=C(Nc1ccc(Cl)c(C(F)(F)F)c1)c1c(-c2ccccc2)nc2n1CCS2(=O)=O
    u, u
> COc1ccc(CNC(=O)c2cc3cccc4c3n2CC(C)S4)cc1 (stereo not drawn)
    4%, -4%
> CCOC(=O)C1CCC(CNCc2c(Cl)cccc2Cl)CC1 (stereo not drawn)
    8%, 17%
> Cc1cccc(-c2cccc3c4c([nH]c23)[C@@H]2C[C@H](N(C)C(=O)NC3CCCCC3)[C@H]([C@H](C)O)CN2CC4)c1
    -10%, 18%
> COc1ccc(S(=O)(=O)N(CC(=O)Nc2ccc(Br)cc2)Cc2ccccc2)cc1
    117%[activator], -21%
> CCOC(=O)c1c(C)[nH]c(C)c1S(=O)(=O)N1CCCC(C(=O)N2CCN(c3ccc(Cl)cc3)CC2)C1 (stereo not drawn)
    216%[activator], -10%
> ClCc1cccc(Cl)c1
    -7%, -16%

Record cards, as listed above. Values in the order: StopGo RLuc, 2A firefly
Shown for ClCc1cccc(Cl)c1 → -7%, -16%
Shown for COc1ccc(CNC(=O)c2cc3cccc4c3n2CC(C)S4)cc1 (stereo not drawn) → 4%, -4%
Shown for O=C(Nc1ccc(Cl)c(C(F)(F)F)c1)c1c(-c2ccccc2)nc2n1CCS2(=O)=O → u, u
Shown for COc1ccc(S(=O)(=O)N(CC(=O)Nc2ccc(Br)cc2)Cc2ccccc2)cc1 → 117%[activator], -21%

Next part:
Below each compound – StopGo RLuc, 2A firefly
> CCOC(=O)Cc1ccc(NC(=O)N2CCC(CN3CCC(C)CC3)CC2)cc1
    -2%, -2%
> O=C(O)c1ccc(-n2c(/C=C\c3ccc(O)cc3)nc3ccccc3c2=O)cc1
    -1%, 0%
> NNc1cccc2ncccc12
    3%, 0%
> O=C(NCCc1ccccc1)c1ccc2c(c1)N(Cc1c(F)cccc1Cl)C(=O)CS2
    27%, 105%[activator]
> COC(=O)C(C#N)c1nc2ccccc2nc1NCC(C)C (stereo not drawn)
    18%, 13%
> CCCOc1ccc2c(c1)sc1ncc(NC(=O)c3ccc(OC)c(OC)c3)c(=O)n12
    -7%, 21%
> Cc1nn(C(=O)c2ccc(Br)cc2)c(C)c1S(=O)(=O)N1CCOCC1
    -5%, -2%
> CC(C)OC(=O)C1=C(N)Oc2c(oc(CO)cc2=O)C1c1ccc(F)cc1F (stereo not drawn)
    -3%, -11%
> CC(CNC(=O)c1cc(-c2ccccc2)no1)N1CCOCC1 (stereo not drawn)
    -8%, 56%[activator]
> COc1ccccc1C(=O)Nc1nnc(SCc2cc(=O)n3ccc(C)cc3n2)s1
    -11%, 3%
> CCC(=O)NCCNC(=O)c1cc(-c2ccccc2)nc2ccccc12
    9%, 18%
> O=c1c2sc3ccccc3c2n(Cc2cccc(C(F)(F)F)c2)c(=O)n1Cc1ccc(F)cc1
    -9%, -26%
> COCCCN(CCOC)C(=O)c1cc2ccccc2c(OC)n1
    16%, 8%
> CCc1ccc2oc(C(=O)NCC(c3ccco3)N(C)C)cc(=O)c2c1 (stereo not drawn)
    -3%, -8%
> CC(=O)Nc1c(C)nn(-c2ccccc2)c1N1CCC(C(=O)Nc2cccc(C(F)(F)F)c2)CC1
    -1%, -26%
> COc1ccc2cc(C(=O)NCC(=O)Nc3cccc(C)c3C)c(C)nc2c1
    2%, -3%
> Cn1c(=O)c2c(nc(N3CCN(C(=O)c4ccco4)CC3)n2Cc2ccc(F)cc2)n(C)c1=O
    -3%, 2%
> Cc1ccc2c(=O)c(C(=O)c3cccc(Cl)c3)cn(CC(=O)NCc3ccccc3)c2n1
    -6%, -23%
> CCOc1ccc(Oc2ccccc2NC(=O)Cc2nc(-c3ccccc3)oc2C)cc1
    u, u
> COc1cccc(NS(=O)(=O)c2ccc3c(c2)[C@H]2C=CC[C@H]2[C@@H](c2ccccc2Cl)N3)c1
    72%[activator], u
> CC(=O)c1ccc(N2CCN(c3nc4c(S(=O)(=O)c5ccc(C)c(C)c5)nnn4c4ccc(Cl)cc34)CC2)cc1
    -3%, -6%
> CCc1cccc(C)c1NC(=O)c1cc2ccccc2o1
    -25%, 1%
> CCCCN(C)C(=O)c1ccc2c(c1)N(Cc1ccc(F)cc1)C(=O)c1ccccc1S2(=O)=O
    83%[activator], 21%
> COc1ccc(N2C(=O)NC(NS(=O)(=O)c3ccc(Cl)cc3)(C(F)(F)F)C2=O)cc1 (stereo not drawn)
    -10%, -11%
> COc1cccc(CN2CCc3nc(SCC(=O)Nc4ccccc4)[nH]c(=O)c3C2)c1
    -6%, 7%
> COc1ccc2cc(C(=O)NCC3CC3)c(C)nc2c1
    -3%, 60%[activator]
> NC(=O)c1ccc(OCc2ccccc2C(F)(F)F)cc1
    92%[activator], 0%
> CCc1c(C)sc(NC(=O)C2CC2)c1C#N
    3%, 0%
> CCOC(=O)c1scc(-c2ccc(C)cc2)c1S(=O)(=O)Nc1cc(C)ccc1C
    15%, -4%
> Cc1nn(CC(=O)N2CCN(c3cccc(Cl)c3)CC2)c(=O)c2c1sc1ccccc12
    -6%, -6%
> Cc1ccc2oc(SCc3noc(CCC(=O)Nc4ccc5ccccc5c4)n3)nc2c1
    0%, 17%
> COc1cc(NCc2ccc3nc(N)nc(N)c3c2C)cc(OC)c1OC
    -29%, -25%[11.5 µM]
> CC(=O)c1ccc(NC(=O)Cn2cnc3c2c(=O)n(C)c(=O)n3C)cc1
    -7%, 66%[activator]
> COc1ccc(OC)c(CCNC(=O)c2cnn(-c3ccc(C)cc3C)c2C2CCN(C(=O)OC(C)(C)C)CC2)c1
    u, -22%
> COc1cccc(C(=O)OCc2ccccc2C#N)c1OC
    26%, 27%
> CNC(=O)NCCC1CCN(C(=O)Nc2cccc(Cl)c2)CC1
    -8%, 129%[activator]
> Cn1c(=O)c2c(-c3ccccc3Cl)n(-c3cccc(O)c3)cc2n(C)c1=O
    0%, 32%
> COCC(=O)NNC(=S)NCc1ccc(C)cc1
    12%, 0%
> CCOC(=O)C1=C(CS(=O)(=O)c2ccc(C)cc2)NC(=O)NC1c1ccc(C(C)C)cc1 (stereo not drawn)
    -6%, -39%
> O=[N+]([O-])c1ccc(Nc2cccc3ccccc23)nc1
    8%, u
> CC(Oc1cccc(Cl)c1)C(=O)OCc1nc(N)nc(Nc2ccccc2)n1 (stereo not drawn)
    -2%, 23%
> COc1ccc2cc(C(=O)N3CCCC(NC(=O)C(C)C)C3)c(C)nc2c1 (stereo not drawn)
    -6%, 25%
> N=C(N)c1ccc(COc2ccccc2)cc1
    -7%[1.06 µM], 22%
> CCCCOc1ccc(C(=O)Nc2cccc(-c3nc4cccnc4s3)c2)cc1
    9%, 3%
> Cc1c(CCC(=O)NCc2ccccc2)c(=O)oc2cc(O)ccc12
    52%[activator], 21%
> CCC(=O)N1c2ccccc2CC1C(=O)NCCc1ccc(OC)c(OC)c1 (stereo not drawn)
    15%, 0%
> Cn1cnnc1-c1ccc(NS(=O)(=O)c2ccc(C(C)(C)C)cc2)cc1
    229%[activator], 0%
> O=C(Nc1ccccc1)c1cccc2c(=O)c3c([nH]c12)CCCC3
    -5%, -9%
> COc1ccc(C)cc1S(=O)(=O)Nc1ccc(Nc2nc(C)cc(N3CCOCC3)n2)cc1
    225%[activator], 0%
> CC1CCCC(NC(=O)c2ccccc2)C1C (stereo not drawn)
    17%, 139%[activator]

Retrieved by compound from above, 6 records:
Below each compound – StopGo RLuc, 2A firefly
> O=C(Nc1ccccc1)c1cccc2c(=O)c3c([nH]c12)CCCC3
    -5%, -9%
> CCCCOc1ccc(C(=O)Nc2cccc(-c3nc4cccnc4s3)c2)cc1
    9%, 3%
> Cc1c(CCC(=O)NCc2ccccc2)c(=O)oc2cc(O)ccc12
    52%[activator], 21%
> CC1CCCC(NC(=O)c2ccccc2)C1C (stereo not drawn)
    17%, 139%[activator]
> N=C(N)c1ccc(COc2ccccc2)cc1
    -7%[1.06 µM], 22%
> Cn1cnnc1-c1ccc(NS(=O)(=O)c2ccc(C(C)(C)C)cc2)cc1
    229%[activator], 0%

Carrying on:
Below each compound – StopGo RLuc, 2A firefly
> CC1CCCN(CC(=O)NC23CC4CC(CC(C4)C2)C3)C1 (stereo not drawn)
    2%, -7%
> O=C1CN(C(=O)COc2ccc(Cl)cc2Cl)C(c2ccccc2)c2cc(F)ccc2N1 (stereo not drawn)
    -22%, -22%
> Cc1cc(OCCOCC[N+](C)(C)Cc2ccccc2)ccc1C(C)(C)CC(C)(C)C
    u, u
> CCN(CC)c1ccc(NC(=O)CCc2c[nH]c3ccccc23)cc1
    20%, 29%
> Cc1ccc(-n2ccc(=O)c(C(=O)Nc3cc(C(F)(F)F)ccc3Cl)n2)cc1
    2%, 3%
> CCC(NC(=O)c1ccccc1)c1ccccc1OC(F)F (stereo not drawn)
    2%, 4%
> O=C1CN(C(=O)c2ccc(S(=O)(=O)N3CCCCC3)cc2)C(c2ccc(F)cc2)c2cc(F)ccc2N1 (stereo not drawn)
    23%, -21%
> O=C(C1CCN(S(=O)(=O)c2ccc(Br)s2)CC1)N1CCN(c2ccccc2)CC1
    -7%, -4%
> COc1ccc(-c2nnc(SCC(=O)NCc3ccco3)n2C2CCCCC2)cc1OC
    13%, 8%
> CCCn1nc(C(=O)OCc2ccc(C#N)cc2)c2ccccc2c1=O
    5%, 10%
> CNC(=O)c1ccc(CN(C(=O)Cc2ccc(C)s2)C2CC2)cc1
    10%, 22%
> COc1ccccc1C(=O)Oc1c(Sc2ccccc2)c(C)nn1C(C)(C)C
    u, -27%
> O=C(COc1ccc2c(c1)CCC(=O)N2)NOCc1ccccc1
    -10%, 0%
> CC(CNC(=O)CN1C(=O)COc2ccc(S(=O)(=O)N3CCCCCC3)cc21)c1ccccc1 (stereo not drawn)
    -3%, -8%
> CCOc1ccc(CNC(=O)C2CCN(S(=O)(=O)N3CCC4(CC3)OCCO4)CC2)cc1OC
    -6%, 1%
> CC(C)[C@@H](CO)NC(=O)[C@H](NC(=O)C(c1ccccc1)c1ccccc1)c1ccccc1
    27%, 0%
> O=C(c1cccc(F)c1)N(Cc1ccco1)C1CC1
    4%, -2%
> CCOc1ccc(-c2cc(CCCC(=O)NCCc3cc(OC)c(OC)c(OC)c3)no2)cc1
    8%, u
> COCCCNC(=O)C1CCCN(C(=O)Cc2c[nH]c3ccccc23)C1 (stereo not drawn)
    -8%, -4%
